UCH37 DUB inh = inhibitors of human deubiquitinating enzyme UCH37; purified proteasome/UCH37, Ub-AMC cleavage fluorescence; inhibition, % (test concentration not listed); 330,000 tested, 0.33% active; Q9Y5K5; AID 588478;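 active means mean of two replicates above 20%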;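 further: 0% = compound-free wells with enzyme and 100% = wells lacking proteasome; stock transfer was 100 nL into about 20 µL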
Target sequence (Q9Y5K5 whole entry, looked up): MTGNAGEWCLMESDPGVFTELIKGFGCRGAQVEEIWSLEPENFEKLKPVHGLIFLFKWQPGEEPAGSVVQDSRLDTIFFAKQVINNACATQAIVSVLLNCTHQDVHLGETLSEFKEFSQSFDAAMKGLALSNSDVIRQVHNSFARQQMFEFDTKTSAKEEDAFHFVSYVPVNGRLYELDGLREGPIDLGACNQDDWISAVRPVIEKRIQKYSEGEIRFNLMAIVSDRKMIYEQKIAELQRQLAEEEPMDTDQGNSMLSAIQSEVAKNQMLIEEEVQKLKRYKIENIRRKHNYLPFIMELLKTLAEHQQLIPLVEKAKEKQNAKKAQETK
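Material: human UCH37 enzyme supplied as purified proteasome complex. Measure: % inhibition of Ub-AMC cleavage fluorescence. Medium: pH 7.4 Tris-HCl (50 mM) with ovalbumin, ATP-MgCl2, DTT. Times: 30 min preincubation with enzyme, 25 min cleavage at room temperature. Detection: AMC fluorescence intensity at 355/460 nm.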
FGF22 binding = FGF22 (human) thermal shift binding. Q9HCT0. recombinant FGF22 thermal shift, SYPRO orange fluorescence; percent of sucrose octasulfate shift, DMSO zero. calls only at 9.99 µM. 340,000 tested, 1.5% active. AID 651658;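 active means melting point raised past a set limit in the mean and every replicate; three in four hits are not shown here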
LANA-H2B inh = blocks KSHV LANA binding to histone H2A/H2B | inhibition, % (test concentration not listed) | 320,000 tested, 0.6% active | cell-free LANA-H2A/H2B peptide, fluorescence polarization | AID 2629; in the data active means inhibition mostly above about 10%, no sharp cut-off; inactive means mostly below about 6.7%;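 further: stock transfer was 7.5 nL into about 10 µL; 0% = median of vehicle wells and 100% = median of positive control wells; one replicate is shown; the record names a cut of 25% in any replicate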
ALR H2O2 inh = human ALR oxidase inhibition via reduced H2O2; P55789; 290,000 tested, 3.8% active; inhibition, % (test concentration not listed); purified ALR, DTT oxidation, H2O2 HRP-luminol luminescence;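 active means mean and each replicate at 75% or more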;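 further: stock transfer was 7.5 nL into about 7.5 µL; 0% = neutral wells and 100% = wells with inactivated enzyme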
Target sequence (P55789 whole entry, looked up): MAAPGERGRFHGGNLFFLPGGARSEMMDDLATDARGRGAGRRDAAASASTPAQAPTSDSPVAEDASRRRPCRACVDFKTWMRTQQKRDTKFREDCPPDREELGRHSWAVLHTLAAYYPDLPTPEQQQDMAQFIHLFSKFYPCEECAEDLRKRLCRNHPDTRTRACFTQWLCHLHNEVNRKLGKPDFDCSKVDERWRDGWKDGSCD
Ecoli growth = E. coli growth inhibition; Escherichia coli growth, OD600, 23 h; stronger effect = lower value; OD600 absorbance (test concentration not listed); 330,000 tested, 0.21% active; AID 1053175;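 active means OD600 absorbance below the run mean of sample wells minus 3.6 SD, in any replicate, cut at about 0.56 in these data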;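 further: stock transfer was 300 nL into about 60 µL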
HNF4A DNA FP = change in binding of human HNF4 alpha to DNA; P41235; 360,000 tested, 0.3% active; activity change, % at 10 µM; HNF4a-FITC DNA binding, fluorescence polarization, 1 h; in the data active means activity change above about 30%, passing the limit was not always enough;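 further: controls were the assay level and a saturating level of protein; the project sought stronger binding though the title names inhibitors; some compounds called inactive have numbers as strong as hits; positive values seem to mean higher polarization but the record does not say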
Target sequence (P41235 whole entry, looked up): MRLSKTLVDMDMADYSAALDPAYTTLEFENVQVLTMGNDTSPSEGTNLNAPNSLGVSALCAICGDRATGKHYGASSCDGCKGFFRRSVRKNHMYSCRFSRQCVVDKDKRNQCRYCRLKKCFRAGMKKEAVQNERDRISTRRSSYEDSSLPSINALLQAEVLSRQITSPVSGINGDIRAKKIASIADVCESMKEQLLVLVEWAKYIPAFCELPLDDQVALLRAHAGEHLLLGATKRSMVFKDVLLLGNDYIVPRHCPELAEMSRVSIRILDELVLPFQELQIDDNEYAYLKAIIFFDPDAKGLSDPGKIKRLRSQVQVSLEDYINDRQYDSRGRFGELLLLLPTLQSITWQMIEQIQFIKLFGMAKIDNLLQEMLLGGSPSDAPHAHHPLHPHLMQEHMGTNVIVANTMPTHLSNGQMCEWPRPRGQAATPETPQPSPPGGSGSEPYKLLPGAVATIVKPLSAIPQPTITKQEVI
B2AR ag = agonists of human beta-2 adrenergic receptor inducing internalization; AID 504454; P07550; response, % (concentration not given with the values); 340,000 tested, 0.43% active; Am2.2-beta2AR cells, FAP receptor internalization, flow cytometry; reference of the scale not given here;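 active means response above a set limit, near 3 SD of response in nonfluorescent compounds, cut at about 42% in these data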;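 further: stock transfer was 100 nL into about 11 µL; a reference agonist was the positive control; negative values mostly stem from fluorescent compounds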
* hit, by the source's call; i = inactive; . = no result given. An excerpt; rates above refer to the full screens.

SMILES	UCH37 DUB inh	FGF22 binding	LANA-H2B inh	ALR H2O2 inh	Ecoli growth	HNF4A DNA FP	B2AR ag
Cc1ccc(O)c(-c2cc(C(=O)Nc3ccc(S(=O)(=O)Nc4nc(C)cc(C)n4)cc3)[nH]n2)c1	6.7	.	-3.9	44	0.72	2.8	4
COc1cccc2oc3cc(C#Cc4ccccn4)ccc3c(=O)c12	-5.4	i	3.1	1	0.68	.	.
CC1CCN(S(=O)(=O)c2cccc(C(=O)NCc3cccs3)c2)CC1	-3.0	.	-1.2	0	0.78	-0.1	-1
COCCCNC(=O)CNC(=O)c1nn(-c2ccc(OC)c(Cl)c2)c(=O)c2ccccc12	-0.3	i	5.2	.	0.68	1.7	-2
CSc1ccccc1OCc1cc(C(=O)N2CCN(C)C(c3ccccc3)C2)no1 (stereo unspecified)	4.8	i	1.8	.	0.69	-0.2	-1
COc1ccc(NC(=O)CS(=O)(=O)c2ccccc2)cc1	0.5	i	3.4	-3	0.66	2.9	-5
Cc1ccc(NC(=O)N2CCCC2C(=O)Nc2ccc3c(c2)OCCO3)cc1 (stereo unspecified)	.	i	-4.4	1	.	-1.7	-1
Cc1ccc(NC(=O)CS(=O)CC(=O)N(CC(=O)NC2CCCC2)c2cc(C)ccc2C)cc1 (stereo unspecified)	0.5	.	0.8	-2	0.7	-4.2	-1
O=C(CSc1nc2ccc(NC(=O)c3ccccc3C(=O)O)cc2s1)Nc1ccc(F)c([N+](=O)[O-])c1	3.5	i	4.1	.	0.69	0.8	4
O=C(NCCCN1CCOCC1)C1CCN(S(=O)(=O)c2cccc(C(F)(F)F)c2)CC1	4.9	i	-0.8	-1	0.65	0.5	11
CCc1cc(=O)oc2c(C)c(OCC(=O)N3CC[C@@]4(O)CCCC[C@H]4C3)ccc12	-52	i	-0.9	-1	0.75	-1.2	-15
O=C(N/C(=C/c1cccs1)C(=O)N1CCCC1)c1ccccc1	1.3	i	1.7	-28	0.7	-0.7	-2
CCOC(=O)c1nnn(-c2ccc(OC)cc2)c1N	0.8	.	-1.1	-3	0.71	3.2	3
Cc1ccccc1-c1cccc(CN2CCN(C)C(CCO)C2)c1 (stereo unspecified)	5.9	i	2.4	.	0.72	-4.7	-2
O=C(O)/C(=C\c1ccco1)NC(=O)c1ccco1	3.3	i	-2.4	.	0.69	-0.7	4
O=c1nc(Nc2ccccc2)sc2ccc([N+](=O)[O-])cc12	.	.	-3.8	-3	.	-2.9	6
Cc1c(OCC(=O)NCCCN2CCOCC2)ccc2c1oc(=O)c1ccccc12	-390	i	-2.8	7	0.66	-0.1	3
O=C(CN1CCC(n2nnc3cc(F)ccc32)CC1)NC1CCCCC1	1.6	.	0.2	-11	0.69	-3.2	-9
Cc1cccc(Nc2nc(-c3sc(C)nc3C)cs2)c1	-1.1	i	-0.4	29	0.67	-0.1	16
CN1CCN(c2ncnc3c2[nH]c2ccc(F)cc23)CC1	-52	.	6.6	-27	0.72	-2.0	-7
Cc1ccc(-c2ccc(S(=O)(=O)Nc3cccnc3)cc2)cc1	.	i	-0.8	-18	.	-1.7	9
CCc1ccc2[nH]c(=O)c(C(c3nnnn3Cc3ccc(OC)cc3)N3CCOCC3)cc2c1 (stereo unspecified)	-19	.	.	.	0.67	1.2	-7
C/C(NC1CCCC1)=C(/C#N)C(N)=O	3.6	.	6.9	0	0.71	2.6	-8
O=C(Nc1ccccc1)C1CC(=O)n2ncnc2N1 (stereo unspecified)	0.9	i	2.7	1	0.66	2.2	1
COc1ccc(CCNC(=O)CSc2ccc3ccccc3c2)cc1OC	7.4	i	-6.4	99*	0.68	1.5	0
CCCS(=O)(=O)NCCc1cc2c(C)ccc(C)c2[nH]c1=O	-2.4	i	-1.5	-10	0.77	-1.8	6
c1cc(OCCCN2CCCCC2)ccc1CN1CCCCC1	1.7	i	-1.8	.	0.66	9.6	-15
N#Cc1c(N)c(C#N)c(-c2ccc(O)cc2)c2c1CCCC2	-27	.	-3.5	21	0.71	3.8	2
CN1CCN(CCn2c(=S)[nH]c3ccccc3c2=O)CC1	0.8	i	0.7	15	0.69	-3.7	-6
CCCN(CCC)C(=O)c1ccccc1C(=O)N(CCC)CCC	5.2	.	0.9	-2	0.7	4.2	-3
Cc1ccc(C(C)C)cc1OCCn1cncn1	4.2	i	-0.4	-3	0.66	1.5	-3
Cc1c(CCOC(=O)c2ccc([N+](=O)[O-])cc2)sc[n+]1CC(=O)c1ccccc1	1.8	i	-0.1	6	0.63	-0.4	-11
O=C(COC(=O)c1ccc(N2CCCC2=O)cc1)c1ccc(OC(F)F)cc1	4.7	i	-4.0	48	0.67	3.4	4
O=C(c1ccco1)N1CCN(/C(=N/S(=O)(=O)c2cccs2)c2ccccc2Cl)CC1	.	.	-6.2	-16	.	-0.2	-19
CCCCCn1c(SC(C)C(C)=O)nc2c1c(=O)[nH]c(=O)n2C (stereo unspecified)	3.7	i	5.8	-6	0.7	4.5	5
O=C(Nc1ccc(C(=O)NCCCN2CCN(c3ccc(F)cc3)CC2)cc1)C1=CSCCO1	.	i	-7.5	2	.	-1.6	-17
Cc1c(NC(=O)Nc2ccc(C(C)(C)C)cc2)c(=O)n(-c2ccccc2)n1C	2.7	i	4.6	-6	0.65	2.4	22
O=C1NCCN1C(=O)N(c1ccccc1)c1ccccc1	1.3	.	-0.5	1	0.7	4.4	24
CC(=O)N(Cc1cc(=O)[nH]c2ccccc12)c1ccccc1C	-1.2	i	-5.9	-2	0.66	3.7	-4
CCOc1ccc(S(=O)(=O)NCc2cccs2)cc1	1.1	.	-9.8	0	0.64	1.1	-1
O=C(c1cccc(S(=O)(=O)N2CCOCC2)c1)N(CCc1ccccc1)Cc1ccccc1	0.9	i	2.2	-29	0.67	-0.8	7
Cn1c(CC(=O)Nc2ccccc2)nnc1SCC(=O)c1ccccc1	-1.5	.	-1.6	-3	0.79	1.4	-2
CCOC(=O)N1CCN(C(=O)Nc2ccc3nccnc3c2)CC1	-69	.	-1.9	-32	0.7	1.0	-5
COc1cc(NC(=O)C(=O)Nc2ccc3nc4n(c(=O)c3c2)CCCCC4)cc(OC)c1OC	-6.0	i	-2.3	0	0.73	-1.5	7
CN(C)S(=O)(=O)c1ccc(C(=O)N2CCC(c3nc4ccccc4o3)CC2)cc1	6.7	.	3.4	-2	0.7	-0.3	0
CC(=O)N/C(=C\c1ccc(Br)s1)C(=O)O	3.1	.	3.5	0	0.7	0.8	5
O=C(C1CC1)N1CCc2cc(Br)cc(S(=O)(=O)NCc3ccco3)c21	-0.7	.	2.8	7	0.67	2.5	-13
Cc1ccc(C)c(OCC(O)CN2CCC(CN3C(=O)c4cccc5cccc(c45)C3=O)CC2)c1 (stereo unspecified)	-36	.	-0.2	-8	0.65	-4.5	-4
COC(=O)[C@H]1[C@@H](C)N(Cc2ccccc2)C(=O)N[C@H]1c1ccccc1	5.0	i	-2.1	-3	.	-0.9	-2
CCCCN(Cc1ccccc1)C(=O)C1CCN(Cc2sccc2C)CC1	4.0	i	1.6	-5	0.69	1.4	2

Continuation.
SMILES	UCH37 DUB inh	FGF22 binding	LANA-H2B inh	ALR H2O2 inh	Ecoli growth	HNF4A DNA FP	B2AR ag
CC(=O)c1ccc(OCCCC(=O)Nc2cccc(S(=O)(=O)N(C)C)c2)cc1	0.6	.	0.6	-7	0.64	-1.9	0
Cc1cc(C)cc(NC(=S)NCCc2c[nH]c3ccccc23)c1	0.7	.	3.6	1	0.66	2.4	22
Clc1cccc(Cl)c1COc1ccncc1	2.5	.	3.9	-8	0.73	3.9	3
COc1cc(Cl)c(C)cc1NC(=O)c1ccc2c(SCC(=O)O)c3c(nc2c1)CCCC3	-24	i	-0.8	.	0.72	-7.7	-6
O=C(c1cn[nH]c1)c1cc(F)ccc1O	0.0	.	3.3	-2	0.65	1.9	4
O=C(O)c1ccc(-c2noc(-c3ccc(F)cc3)n2)cc1	1.9	i	1.8	10	0.68	2.9	-1
COc1cccc(CNC(=O)Cn2c(=O)c3cccn3c3ccccc32)c1	1.0	i	-3.6	0	0.71	1.1	-12
CCOC(=O)C1CCCN(c2c(NCCc3ccc(C)cc3)c(=O)c2=O)C1 (stereo unspecified)	0.8	i	3.3	-5	0.7	-1.4	1
Cc1ccc(N(C(=O)c2ccc(CN3CCOCC3)o2)C(C(=O)NCCC(C)C)c2cccs2)c(C)c1 (stereo unspecified)	-1.5	.	-9.6	1	0.7	-2.1	8
COc1ccccc1NC(=S)NC1CCCCCCCCCCC1	2.7	i	-8.2	0	0.6	5.0	4
CC(C)[C@H](NC(=O)c1cccc(S(=O)(=O)N2CCCC2)c1)c1nc2ccccc2[nH]1	-1.8	.	1.8	0	.	1.0	6
O=c1c2cnn(-c3ccccc3)c2ncn1Cc1cccnc1	-1.4	.	-6.7	0	0.66	3.0	6
CC(=O)c1cccc(NC(=O)CN(Cc2ccccc2)S(C)(=O)=O)c1	4.2	.	3.9	-1	0.67	3.0	3
Cc1ccc(O)c(-c2[nH]ncc2C(=O)c2ccc(Br)cc2)c1	7.5	i	3.0	22	0.64	1.9	-7
C=C(C)COc1ccc(-c2n[nH]c(C)c2-c2ccc(Br)cc2)c(O)c1	3.7	.	5.8	2	0.7	1.5	4
CCc1c(O)c(-c2ccccc2)c(=O)n(-c2ccccn2)c1-c1ccccc1	-2.0	i	0.1	0	0.64	-0.2	-2
COc1ccc(NC(=O)NC2(C(=O)N3CCCC(C)C3)CCCCC2)cc1 (stereo unspecified)	1.3	i	-3.6	.	0.69	1.4	2
CC(NS(=O)(=O)c1ccccc1)C1CC2CCC1C2 (stereo unspecified)	2.9	i	-1.7	-6	0.68	-4.2	3
Cc1cccc(NC(=O)C2CCCN(c3ncnc4c3nc3n4CCCCC3)C2)n1 (stereo unspecified)	1.5	i	2.8	-9	0.79	0.2	0
CC(Oc1ccc(C(=O)NC2CCCCC2)cc1)C(=O)O (stereo unspecified)	1.9	.	0.7	-20	0.77	-1.8	-4

For reference, 6 of the compounds above:
SMILES	UCH37 DUB inh	FGF22 binding	LANA-H2B inh	ALR H2O2 inh	Ecoli growth	HNF4A DNA FP	B2AR ag
Cc1ccc(O)c(-c2[nH]ncc2C(=O)c2ccc(Br)cc2)c1	7.5	i	3.0	22	0.64	1.9	-7
C=C(C)COc1ccc(-c2n[nH]c(C)c2-c2ccc(Br)cc2)c(O)c1	3.7	.	5.8	2	0.7	1.5	4
CCc1c(O)c(-c2ccccc2)c(=O)n(-c2ccccn2)c1-c1ccccc1	-2.0	i	0.1	0	0.64	-0.2	-2
COc1ccc(NC(=O)NC2(C(=O)N3CCCC(C)C3)CCCCC2)cc1 (stereo unspecified)	1.3	i	-3.6	.	0.69	1.4	2
CC(NS(=O)(=O)c1ccccc1)C1CC2CCC1C2 (stereo unspecified)	2.9	i	-1.7	-6	0.68	-4.2	3
Cc1cccc(NC(=O)C2CCCN(c3ncnc4c3nc3n4CCCCC3)C2)n1 (stereo unspecified)	1.5	i	2.8	-9	0.79	0.2	0

Later entries
SMILES	UCH37 DUB inh	FGF22 binding	LANA-H2B inh	ALR H2O2 inh	Ecoli growth	HNF4A DNA FP	B2AR ag
COC(=O)c1[nH]c2ccc(C)cc2c1NS(=O)(=O)c1ccc(F)c(C)c1	-0.6	.	-2.9	30	0.69	-1.8	-1
CCC(NC(=O)c1ccccc1NC(=O)c1ccco1)C(=O)O (stereo unspecified)	5.3	.	-0.5	-11	0.82	-1.9	-18
CCN(CC)C(=O)N1CCN(S(=O)(=O)c2ccc(C)c(C)c2)CC1	1.0	.	0.3	-1	0.77	-2.4	4
Cn1c(=O)c2c(c3ccccc31)OC(C)(C)CC2	0.7	i	3.1	5	0.68	-2.5	-2
Cc1ccc(S(=O)(=O)N(C)c2ccc(OCC(=O)Nc3nc4ccccc4s3)cc2)cc1	1.0	i	0.2	-26	0.73	-3.3	-16
c1cncc(-c2nn3c(Cn4cnc5ccccc54)nnc3s2)c1	3.1	.	-10	-5	0.67	12	-10
CC(=O)Oc1ccc2nc(CN3C(=O)c4ccc([N+](=O)[O-])cc4C3=O)oc(=O)c2c1	-0.6	.	0.5	-12	0.69	1.8	5
O=C(NCCN1CCOCC1)c1cccc(S(=O)(=O)Nc2ccc(F)cc2)c1	4.0	i	-8.6	-6	0.69	5.8	-11
